# LANA-H2B inh: blocks KSHV LANA binding to histone H2A/H2B; inhibition, % (concentration not given with the values); cell-free LANA-H2A/H2B peptide, fluorescence polarization; Q9QR71; 320,000 tested, 0.6% active; in the data active = inhibition mostly above about 10%, no sharp cut-off; inactive = mostly below about 6.7%;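 note: stock transfer was 7.5 nL into about 10 µL; 0% = median of vehicle wells and 100% = median of positive control wells; one replicate is shown; the record names a cut of 25% in any replicate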
# T cruzi repl: blocks replication of Trypanosoma cruzi; T. cruzi beta-gal in NIH3T3, luminescence, 90 h; inhibition, % (concentration not given with the values); 300,000 tested, 1.4% active; AID 1885;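 active = mean inhibition across valid replicates above about 55%, limit read from the data; inconclusive = mean below that limit but half or more replicates reach it; inactive = mean below it, under half of replicates reach it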;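 note: signal also drops with host cell toxicity which is not excluded here; 0% = plate median of DMSO wells and 100% = zero luminescence signal; higher percent means less beta-gal luminescence so fewer parasites; stock transfer was 50 nL into about 50 µL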
# B2AR ag: agonists of human beta-2 adrenergic receptor inducing internalization; P07550; Am2.2-beta2AR cells, FAP receptor internalization, flow cytometry; reference of the scale not given here; response, % (no concentration beside the values); 340,000 tested, 0.43% active;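 active = response above a set limit, near 3 SD of response in nonfluorescent compounds, cut at about 42% in these data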;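 note: stock transfer was 100 nL into about 11 µL; a reference agonist was the positive control; negative values mostly stem from fluorescent compounds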
# Target sequence (P07550 whole entry, looked up): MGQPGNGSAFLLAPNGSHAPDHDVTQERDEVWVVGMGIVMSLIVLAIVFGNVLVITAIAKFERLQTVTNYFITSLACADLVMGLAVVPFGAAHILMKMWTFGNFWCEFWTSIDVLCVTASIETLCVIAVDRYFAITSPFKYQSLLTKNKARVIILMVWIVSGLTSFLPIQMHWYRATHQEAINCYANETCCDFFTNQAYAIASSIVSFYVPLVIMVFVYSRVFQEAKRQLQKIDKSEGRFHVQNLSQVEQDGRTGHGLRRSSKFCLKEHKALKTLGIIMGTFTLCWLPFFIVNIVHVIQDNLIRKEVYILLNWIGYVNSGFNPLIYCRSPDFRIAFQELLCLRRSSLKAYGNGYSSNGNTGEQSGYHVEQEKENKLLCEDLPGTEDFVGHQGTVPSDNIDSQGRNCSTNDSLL
# UCH37 inh: blocks the human deubiquitinase UCH37; purified proteasome/UCH37, Ub-AMC cleavage fluorescence; AID 588478; inhibition, % (concentration not given with the values); 330,000 tested, 0.33% active; Q9Y5K5;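 active = mean of two replicates above 20%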;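 note: 0% = compound-free wells with enzyme and 100% = wells lacking proteasome; stock transfer was 100 nL into about 20 µL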
# Target sequence (Q9Y5K5 whole entry, looked up): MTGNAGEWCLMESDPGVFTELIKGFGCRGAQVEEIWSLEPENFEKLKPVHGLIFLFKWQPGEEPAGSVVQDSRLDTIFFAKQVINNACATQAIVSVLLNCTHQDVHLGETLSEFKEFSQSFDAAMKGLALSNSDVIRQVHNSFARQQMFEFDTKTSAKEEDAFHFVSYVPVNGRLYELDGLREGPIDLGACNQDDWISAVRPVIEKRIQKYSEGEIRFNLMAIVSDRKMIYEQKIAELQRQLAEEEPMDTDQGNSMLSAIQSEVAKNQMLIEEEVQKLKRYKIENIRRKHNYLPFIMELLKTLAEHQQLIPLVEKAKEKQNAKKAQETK
#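 Material: Human UCH37 enzyme supplied as purified proteasome complex | Schedule: 30 min compound-proteasome preincubation then 25 min substrate reaction, room temperature | Detection: AMC fluorescence from Ub-AMC cleavage, excitation 355 nm, emission 460 nm | Benchmarks: Wells without proteasome as full block, compound-free enzyme plus substrate as uninhibited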
# RanGTP-Impb inh: disruptors of Ran-importin-beta complex formation – biochemical, FRET, CFP-Ran, YFP-importin-beta, homogeneous, primary screen; cell-free CFP-Ran/YFP-importin-beta FRET ratio; inhibition, % (no concentration beside the values); 300,000 tested, 1.1% active;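 active = most replicates above 15%; inconclusive = exactly half above 15%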;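 note: 0% = DMSO wells and 100% = Ran loaded with GDP instead of GTP; wells of about 40 µL received 100 nL stock; the first replicate is given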
# Beta apoptosis: blocks beta cell apoptosis; INS-1E cytokine-induced death, ATP luminescence, 48 h; percent of positive-control rescue, neutral wells zero; protection from apoptosis, % (test concentration not listed); 300,000 tested, 0.8% active;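 active = all replicates at 75% or more, or half of them and the mean; inconclusive = half reach 75% but not the mean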;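 note: 0% = cytokine-treated negative control wells and 100% = positive control rescue; higher means more ATP so stronger rescue from cytokine killing; wells of about 40 µL received 100 nL stock; the first replicate is given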
# Bfl-1 A1 inh: inhibitors of the anti-apoptotic protein A1, read as caspase activation. 330,000 tested, 0.066% active. MEF A1-2A-BIM cells, Caspase-Glo 3/7 luminescence, 3 h; percent of clofoctol response, vehicle zero. caspase activation, % (test concentration not listed). AID 2462;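 active = over half of replicate activation scores above 10%, or exactly half above 10 with the replicate mean above 10; inconclusive = replicate mean below 10 yet half the replicates above 10; inactive = over half of replicates below 10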;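 note: wells of about 30 µL received 50 nL stock; many hits fall short of the cut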
# Calb FLC: C. albicans growth modulation with fluconazole; AID 1979; C. albicans CaCi-2 (fluconazole-resistant clinical isolate) + fluconazole, Alamar Blue growth, 48 h; growth inhibition, % (test concentration not listed); 300,000 tested, 0.57% active;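 active = most replicates above 75%; inconclusive = exactly half above 75%; inactive = most below 75%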;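 note: all wells also contain fluconazole at 8 µg/ml as a sub-toxic cotreatment; 0% = median of DMSO wells and 100% = median of geldanamycin control wells; wells of about 8 µL received 7.5 nL stock; the first replicate is given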
# The depositor's hits bear a star; i = inactive; u = inconclusive; x = not tested or not shown.
SMILES,LANA-H2B inh,T cruzi repl,B2AR ag,UCH37 inh,RanGTP-Impb inh,Beta apoptosis,Bfl-1 A1 inh,Calb FLC
COc1ccccc1C(=O)NCCOc1ccc(C(C)(C)C)cc1,-6.5,5.5,-2.9,6.7,-2.1,3.6,1.4,21.2
CCc1noc(C)c1C(=O)NNC(=O)c1nn(CC)c(=O)c2ccccc12,3.8,-2.6,-7.9,0.8,x,2.0,0.0,-1.6
Cc1ccc(C)c(NC(=O)COC(=O)c2nn(C)c(=O)c3ccccc23)c1,-2.6,x,12.1,2.7,x,-1.6,-0.2,x
C/C(CC(=O)Nc1cc(C)ccn1)=N\NC(=O)c1cccc(F)c1,0.0,-10.7,25.3,x,-1.1,-17.1,1.2,3.0
N#Cc1c(F)cccc1NCc1cccs1,2.3,-10.9,-6.0,-5.4,u,-0.6,0.5,8.2
c1ccc(-c2cccc(-c3ccccn3)n2)nc1,1.5,51.8,2.1,1.6,-2.8,81.5*,-0.2,100.1*
COc1ccc(C(C#N)Nc2ccc(C)cc2)cc1 (stereo unspecified),3.6,-13.6,-3.1,6.0,5.6,-6.0,-0.3,20.1
COc1ccc(S(=O)(=O)N2CCN(C/C=C/c3ccccc3)CC2)cc1NC(C)=O,8.7,0.1,0.8,0.3,8.2,1.8,-0.6,13.9
CN(CCOc1ccccc1)S(=O)(=O)c1ccc2oc3ccccc3c2c1,1.9,5.7,1.0,0.6,-1.5,6.0,-0.2,2.9
Cc1ccc(OCC(=O)NCCNC(=O)c2ccncc2)cc1,-7.2,-12.5,5.5,1.4,-0.3,0.9,-0.1,1.4
CCn1cc(-c2csc(N)n2)c(C)n1,2.8,-6.9,-2.9,6.7,0.9,-16.3,0.3,-3.8
CCOCCCNC(=O)C(NC(=O)Cc1c[nH]c2ccccc12)c1ccc(OC)cc1 (stereo unspecified),-1.2,-6.4,10.1,2.6,1.2,0.1,0.4,-13.5
O=C(NCCn1cc(SCC(=O)N2CCOCC2)c2ccccc21)c1ccccc1,0.8,8.5,4.5,2.8,1.5,-1.9,-0.6,0.5
CN1CCN(P(=O)(c2ccccc2)c2nc3ccccc3s2)CC1 (stereo unspecified),-2.9,-18.0,-6.3,1.4,-3.7,-0.7,-0.1,-0.2
CCOc1ccc(S(=O)(=O)N(CC)CC(=O)NCc2ccco2)cc1C,1.6,4.3,-0.2,3.0,1.3,-0.4,0.3,9.0
Cc1ccccc1-n1nc(C)c2cc(C(=O)N3CCN(S(=O)(=O)c4ccc(Cl)cc4)CC3)sc21,8.0,34.7,-4.1,1.6,-1.0,21.9,-0.2,-3.5
COc1cccc(NC(=O)CSc2nc3ncc(Br)cc3[nH]2)c1,1.3,-8.9,-5.5,2.5,-1.3,-4.6,-0.2,3.9
Cc1ccc(S(=O)(=O)N(CC(O)CN2CCOCC2)c2cccc([N+](=O)[O-])c2)cc1 (stereo unspecified),-0.5,-4.9,-3.0,0.9,-2.3,-7.9,-0.5,x
O=C(Nc1ccc(F)cc1F)c1cc2ncc(CCCl)cn2n1,-3.2,2.1,-20.2,-48.1,u,-2.4,0.8,2.2
Oc1ccc(-c2[nH]nc(-c3ccccc3)c2-c2nc3ccccc3[nH]2)cc1,2.7,13.8,4.4,-3.7,-0.2,-10.0,1.5,19.8
COc1ccc(-c2c(C)n([O-])c3c([n+]2=O)CCCCC3)cc1OC,-1.8,-8.5,2.6,4.3,-3.1,-7.2,0.0,19.2
NC(=O)c1cc(NC(=O)c2ccc(NS(=O)(=O)c3cccs3)cc2)cc(C(N)=O)c1,1.4,10.4,11.4,0.7,4.6,-3.8,0.1,-7.0
CCN(CC)c1ccc2c(c1)C(=O)N(C)C2=O,5.3,-6.8,-6.2,-6.9,-9.4,5.7,0.4,2.3
OCCC1CN(Cc2cnc(-c3ccccc3)s2)CCN1C1CCCCC1 (stereo unspecified),3.3,10.2,-0.6,1.6,1.5,-0.2,0.2,-11.8
O=C(O)C1(c2ccccc2)CCN(S(=O)(=O)c2ccc(Cl)cc2)CC1,3.1,-11.9,3.4,0.0,0.4,-4.6,-0.2,3.3
COc1ccc(S(=O)(=O)Nc2noc3ccccc23)cc1OC,-3.7,-0.1,-2.5,0.2,7.5,-4.9,1.7,-0.8
COc1ccc(-c2cn3cc(C(=O)NN)ccc3n2)cc1,3.9,5.3,-1.2,i,-0.8,9.6,-1.6,-0.7
O=C(NCCc1ccc(Cl)cc1)c1nnc(Cc2ccc(Cl)cc2)o1,5.1,-4.8,-0.8,3.2,7.2,-3.1,-0.4,-3.1
CC(=O)N(c1nc(CCl)cs1)c1c(C)cc(C)cc1C,6.4,-19.2,-3.2,2.1,-1.1,-2.0,-0.6,-16.6
Cc1nnsc1-c1nc2ccccc2[nH]1,2.7,-12.8,-7.0,-277.8,-0.4,-3.9,0.0,0.4
N#CCCN(C(=O)COC(=O)c1ccc2c(=O)n3c(nc2c1)CCC3)c1ccccc1,-0.6,1.7,-3.5,-12.0,5.7,5.2,0.5,0.7
Cc1cc(C(=O)OCC(=O)Nc2nnc(C(C)C)s2)c2ccccc2n1,1.4,0.9,6.8,0.4,-3.5,-1.6,-0.1,-0.2
COc1cc2c(c(OC)c1OC)-c1ccc(N(C)CC(OC)OC)c(=O)cc1[C@@H](NC(C)=O)CC2,1.4,18.0,0.5,12.4,-0.8,29.6,0.5,-5.5
O=C(Nc1ccncc1)c1cc(S(=O)(=O)N2CCN(c3ccccc3)CC2)ccc1Cl,4.5,61.2*,16.4,-1.0,-6.1,3.6,-0.4,-12.0
O=C1CC(NS(=O)(=O)c2cccnc2)CN1c1cccc(F)c1 (stereo unspecified),-3.1,-9.7,4.8,1.3,0.6,2.5,0.4,1.2
Cc1nn(CCC(=O)NNC(=S)NCC(C)C)c(C)c1Br,4.6,-19.6,-2.9,3.0,x,10.4,0.2,19.6
Cc1nc2c3ccccc3nc(NNC(=O)CCC(=O)NCCN3CCN(c4ccccc4F)CC3)n2n1,1.5,16.7,3.1,6.0,6.7,1.2,1.5,-3.5
CC(C)COCC(O)CCC(=O)NNC(=S)Nc1ccccc1 (stereo unspecified),-3.1,-28.2,7.1,2.7,-1.5,5.7,0.0,-15.9
Cc1cc(OCc2cc(C(=O)N(C)CCc3cnn(C)c3)no2)cc(C)c1Cl,-9.6,52.7,-4.8,1.8,1.1,6.9,0.2,14.5
Cc1cc(C)cc(NC(=O)Cn2cc(C=O)c3ccccc32)c1,1.0,-3.4,-2.2,3.8,5.1,-3.0,1.1,3.2
COc1cccc(OC)c1C(=O)NC(C)c1ccccc1 (stereo unspecified),-0.9,-10.7,-2.8,0.3,5.2,-1.2,0.0,-0.9
Cc1ccc(S(=O)(=O)NCC(=O)N2CCN(c3ccccn3)CC2)cc1,0.4,14.7,4.7,1.4,-4.7,0.0,1.2,-8.5
CSc1cccc(NC(=O)COc2ccccc2C)c1,-3.5,4.0,-6.5,0.6,-0.3,x,0.6,u
CCc1ccc(S(=O)(=O)Nc2nccs2)cc1,-4.2,-1.7,1.2,0.6,-0.8,-4.6,-0.5,1.8
CCOC(=O)CNC1CC(=O)N(c2cccc(Cl)c2)C1=O (stereo unspecified),1.9,-17.4,-7.0,1.2,0.2,-5.8,-1.0,-6.1
CC1=C(C)CC(C(=O)NCc2c(F)cccc2Cl)C(C(=O)O)C1 (stereo unspecified),0.9,-1.5,-1.7,1.4,0.7,-5.1,0.4,-5.2
Cc1cccc(NC(=O)Nc2ccc(Oc3c(F)c(F)c(F)c(F)c3F)cc2)c1,-0.5,36.4,0.8,-2.1,1.4,14.0,0.2,-18.3
CCC(C)c1ccccc1NS(=O)(=O)c1cnn(CC)c1 (stereo unspecified),-10.1,-5.3,11.4,1.2,1.3,x,0.9,9.5
Cc1csc(NC(=O)C(NS(=O)(=O)c2ccc(Br)s2)c2ccccc2)n1 (stereo unspecified),0.0,1.1,5.0,0.3,-0.1,-6.4,1.3,5.3
COc1cc(C2NC(=S)NC(c3ccccc3)=C2C(C)=O)cc(Br)c1OCC(N)=O (stereo unspecified),-2.0,-4.3,1.9,1.2,1.3,-2.0,0.7,8.8
COc1ccc(/C=C/C(=O)N2CCC(c3ccccc3)C2)cc1 (stereo unspecified),0.4,8.4,1.1,1.9,0.5,1.6,-0.1,-0.5
COc1ccc(NC(=O)CCSc2cc(C)c3ccccc3n2)cc1,9.3,2.7,-1.1,0.0,2.2,-5.5,1.6,4.8
Cc1c(C)n(C)c2ccc(C(=O)NCCCN3CCN(c4ccccc4F)CC3)cc12,-1.3,21.8,3.4,2.9,-0.6,0.9,-1.2,1.4
Cc1c(C(=O)N2CCN(c3ncccn3)CC2)sc2nc3n(c(=O)c12)CCCC3,1.3,-4.5,-3.1,3.2,-0.4,-6.1,-0.6,-2.0
CC(C)N1CCN(c2ccncc2S(=O)(=O)N2CCOCC2)CC1,2.5,6.6,-5.2,2.5,6.0,-3.4,0.1,-3.6
O=C(NCCCN1CCOCC1)C(=O)NCC1OCCN1S(=O)(=O)c1ccc(F)cc1 (stereo unspecified),-2.2,-6.9,-7.3,5.8,-2.8,0.6,-0.2,-0.2
COCCn1c(C)cc(C(=O)CSc2nc(C)nc3sc4c(c23)CCC4)c1C,-4.0,6.0,9.3,4.0,-0.9,5.4,0.8,-7.9
CC(C)OC(=O)C1CC(C)(O)C(=O)C(C(=O)OC(C)C)C1c1ccc([N+](=O)[O-])cc1 (stereo unspecified),-2.1,13.0,5.0,3.4,3.6,1.5,1.4,-4.4
COc1ccc(C)cc1S(=O)(=O)N1CCCC(C(=O)NCC2CCCO2)C1 (stereo unspecified),-1.5,-13.0,2.1,0.2,0.7,-6.8,-0.2,-3.1
COC(=O)CCSCC(=O)Nc1ccc(S(=O)(=O)N2CCOCC2)cc1OC,0.7,-4.5,15.0,5.4,-3.0,4.5,-0.2,0.2

# Quoted at random: two entries already listed
SMILES,LANA-H2B inh,T cruzi repl,B2AR ag,UCH37 inh,RanGTP-Impb inh,Beta apoptosis,Bfl-1 A1 inh,Calb FLC
COc1cc(C2NC(=S)NC(c3ccccc3)=C2C(C)=O)cc(Br)c1OCC(N)=O (stereo unspecified),-2.0,-4.3,1.9,1.2,1.3,-2.0,0.7,8.8
Cc1c(C(=O)N2CCN(c3ncccn3)CC2)sc2nc3n(c(=O)c12)CCCC3,1.3,-4.5,-3.1,3.2,-0.4,-6.1,-0.6,-2.0

# Further records
SMILES,LANA-H2B inh,T cruzi repl,B2AR ag,UCH37 inh,RanGTP-Impb inh,Beta apoptosis,Bfl-1 A1 inh,Calb FLC
Cc1cc(Cl)ccc1OCCCC(=O)N1CCN(C)CC1,-1.8,19.7,-8.2,0.8,u,-7.3,0.1,-4.8
Cc1nc(S/C(=C/c2ccc(-c3ccc(C(=O)O)cc3)o2)C(=O)O)n[nH]1,0.4,1.6,4.8,x,6.2,-2.3,0.0,13.1
COc1cc2nc(C3CCC3)n(NC(=O)C3CCCC(OC)C3)c(=O)c2cc1OC (stereo unspecified),-3.1,-16.2,-2.1,0.4,-2.3,-4.5,2.6,-2.3
O=C(NCc1ccco1)/C(=C\c1cccs1)NC(=O)c1ccsc1,-3.4,9.0,4.8,3.7,0.2,3.8,1.1,7.6
Cc1cccc(C(=O)O/N=C2\CCCc3ccccc32)c1,-2.0,-5.3,1.0,x,7.0,-3.3,-2.6,10.7

# An unsorted share of the library (roughly 4.3% active in at least one column).
